StopGo FLuc = Primary qHTS Assay for Foot and Mouth Disease Virus Antivirals against NCGC Sytravon and CBC Compound Libraries: Firefly Luciferase Signal; HEK cells with a luciferase reporter of 2A StopGo recoding; Potency, µM (series often up to 57.5 µM), without a hit: top-dose signal change, negative = less light; actives 0.23% (n = 120,000); AID 1745856, 2022; active = well fitted falling curve with a large enough effect; inconclusive = small, poorly fitted or top-dose-only effect; inactive = no such curve, though single readings can be large or run the other way; also: nearly all actives have a fitted effect of over 60% in size; overnight with compound
StopGo RLuc = Primary qHTS Assay for Foot and Mouth Disease Virus Antivirals against NCGC Sytravon and CBC Compound Libraries: Renilla Luciferase Signal; HEK cells with a luciferase reporter of 2A StopGo recoding; Potency, µM (doses to about 57.5 µM), for the others: at the top dose signal change, negative = less light; actives 0.32% (n = 120,000); AID 1745857, 2022; active means well fitted falling curve with a large enough effect; inconclusive means small, poorly fitted or top-dose-only effect; inactive means no such curve, though single readings can be large or run the other way; also: nearly all actives have a fitted effect of over 55% in size; overnight with compound
* = called active by the depositor; ? = inconclusive; [ ] = dose if it differs, or a comment. % is scaled to controls: 0 for no effect and ±100 for the full control effect; potency is read from the fitted curve at half-maximal effect. Not all compounds are listed, so the mix of outcomes need not match the whole.

The opening 2 entries (preview)
SMILES,StopGo RLuc,StopGo FLuc
COc1ccc(C(=O)/C(C#N)=C\c2cc(Br)ccc2OC)cc1,9.0%,0.5%
COc1ccc2c(C)c(CCC(=O)NCc3ccc(S(N)(=O)=O)cc3)c(=O)oc2c1C,14.3%,61.0%[activator]

This part in full, previewed entries included:
SMILES,StopGo RLuc,StopGo FLuc
COc1ccc(C(=O)/C(C#N)=C\c2cc(Br)ccc2OC)cc1,9.0%,0.5%
COc1ccc2c(C)c(CCC(=O)NCc3ccc(S(N)(=O)=O)cc3)c(=O)oc2c1C,14.3%,61.0%[activator]
O=C1/C(=C/c2cccc(Br)c2)CCc2ccccc21,-4.7%,159.2%[activator]
O=c1oc2ccc(Br)cc2cc1-c1csc(Nc2ccccc2)n1,12.0%,78.8%[activator]
CCCn1c(SCCC(=O)O)nc2c1c(=O)[nH]c(=O)n2C,-6.3%,-10.0%
CCS(=O)(=O)c1ccc(NCc2cccc(F)c2)cc1,?,36.8%[activator]
C=C(C)CSC1=C(C#N)C(c2ccc(C(C)C)cc2)CC(=O)N1 (configuration not stated),-15.6%,-23.7%
Cc1cc(C)c2nc(/N=C(\N)NC(=O)c3ccccc3)nc(C)c2c1,-0.2%,13.0%
CCOc1ccccc1CNC(=O)C1CCN(S(=O)(=O)c2ccc3c(ccn3C)c2)CC1,-5.3%,-25.8%
CCCCN(Cc1cc2cc(OC)ccc2[nH]c1=O)S(=O)(=O)c1ccccc1,?,?
CCC1CN(C(=O)N2CCC(C(=O)NCc3cccs3)CC2)c2cc(C)ccc2O1 (configuration not stated),19.8%,?
COc1ccc(Cn2ccc3nc(C)c(C(=O)N4CCN(c5ccc(F)cc5)CC4)cc3c2=O)cc1,-13.9%,-16.6%
CCCN1CCN(CCNC(=O)Nc2cc(Cl)c(OC)cc2OC)CC1,-5.9%,-9.4%
COc1ccccc1NC(=O)c1cc(=O)c2cc(C)c(C)cc2o1,8.5%,-6.9%
CN(C)C(=O)c1ccccc1NS(=O)(=O)c1ccc(Cl)cc1,17.2%,-1.1%
CN(C)CCN(CCCc1ccccc1)C(=O)Nc1cccc(F)c1,0.6%,20.3%
COc1ccc(C2C(C#N)=C(N)OC3=C2C(=O)CC(c2ccccc2)C3)cc1 (configuration not stated),42.2%[activator],15.8%
CC[C@H](O)C(C[C@H](C)N(C)C)(c1ccccc1)c1ccccc1,-17.1%[129 µM],10.9%[27 µM]
CC(C)NC(=O)COc1ncnc2ccc(Br)cc12,-6.3%,5.7%
Cc1cc(C)cc(NC(=O)CCCc2nnc3n(CC(C)C)c(=O)c4sccc4n23)c1,-7.7%,-10.7%
COC(=O)c1ccc(NC(=O)COc2ccc3c(C)c(C)c(=O)oc3c2)cc1,2.3%,12.4%
CC[N+]1(C)CCCC(OC(=O)C(O)(c2ccccc2)c2ccccc2)C1 (configuration not stated),-6.2%,-10.3%[11.5 µM]
CCOc1cc(C2c3c(-c4ccccc4O)n[nH]c3C(=O)N2CCc2ccccc2)ccc1O (configuration not stated),0.0%,0.0%
O=S(=O)(NCCc1ncc2ccccn12)c1ccc(Br)cc1,60.7%[activator],10.1%
c1ccc(-c2csc3nc(CN4CCCCC4)nc(Nc4cn[nH]c4)c23)cc1,?,?
CC(=O)Nc1cccc(NC(=O)CC2CC3CCC2C3)c1 (configuration not stated),53.5%[activator],0.0%
CCOC(=O)/C(C#N)=C\C1=C(N2CCOCC2)C(=C/c2ccccc2)/CC1,-24.6%,19.1%
Cc1ccc2c(c1)C1C[N+](C)(Cc3ccccc3)CCC1N2C(=O)c1ccc(F)cc1 (configuration not stated),-6.5%,6.9%
Cn1c(=O)c2c(ncn2CC(=O)Nc2cccc([N+](=O)[O-])c2)n(C)c1=O,-1.7%,1.3%
CC(C)(CO)NC/C=C/c1ccccc1,12.3%,0.0%

Full records, looked up by structure. Order of values: StopGo RLuc | StopGo FLuc
`CCC1CN(C(=O)N2CCC(C(=O)NCc3cccs3)CC2)c2cc(C)ccc2O1` (configuration not stated) is listed with 19.8% | ?
`CCOc1ccccc1CNC(=O)C1CCN(S(=O)(=O)c2ccc3c(ccn3C)c2)CC1` is listed with -5.3% | -25.8%

(further entries)
SMILES,StopGo RLuc,StopGo FLuc
COc1ccccc1N1CCN(c2nc3c(S(=O)(=O)c4ccc(C)c(C)c4)nnn3c3ccc(Cl)cc23)CC1,-6.5%,7.2%
COc1ccc(NC(=O)c2cc(S(=O)(=O)N3CCCCCC3)cn2C)c(OC)c1,25.2%,0.8%
CCN1CCN(C(=O)c2ccc3c(c2)N(Cc2cc(C)ccc2C)C(=O)c2ccccc2S3=O)CC1 (configuration not stated),4.7%,-20.3%
O=C(COc1ccc(Br)cc1)N1CCC(c2ccccc2)=N1,9.1%,-2.1%
CC(C)CCNc1nc2ccccc2nc1NS(=O)(=O)c1ccc(F)cc1,40.6%[activator],?
COc1ccc(-c2cc(C)no2)cc1S(=O)(=O)N1CC(C)Oc2ccccc21 (configuration not stated),242.5%[activator],13.9%
Cc1ccc(S(=O)(=O)N2CCCCC2)cc1NC(=O)COC(=O)c1ccccc1C(F)(F)F,7.1%,?
CCC1CCCCN1C(=O)Cn1c(=O)n(CC2CCC(C(=O)NC)CC2)c(=O)c2sccc21 (configuration not stated),-9.6%,-10.3%
Cc1ccccc1Cn1c(SCc2ccc(C(=O)NC(C)c3ccccc3)cc2)nc2ccncc21 (configuration not stated),4.0%,-0.5%
Cc1oc(-c2ccccc2)nc1CC(=O)Nc1ccc2ccccc2c1,0.1%,136.8%[activator]
N#C/C(=C/c1ccncc1)C(=O)NCCc1ccccc1,7.8%,7.3%
O=C(c1ccc(Cl)c(S(=O)(=O)N2CCCCCC2)c1)N1CCN(c2ccccn2)CC1,?,?
N#Cc1ncn(Cc2coc(-c3cccc(Cl)c3)n2)n1,-23.5%,-14.2%
COc1cccc(CNC(=O)c2ccc3c(c2)nnn3C2CCCC2)c1,-6.1%,7.2%
FC(F)(F)c1cccc(CSc2nc(-c3cccs3)cc(C(F)(F)F)n2)c1,5.5%,20.8%
Cc1cc(=O)c(C(=O)OCC#N)nn1-c1cccc(C(F)(F)F)c1,-7.1%,-11.6%
COc1ccccc1-n1cnnc1SCC(=O)NC(C)c1ccc(-c2ccccc2)cc1 (configuration not stated),0.2%,3.1%
CSc1nn(Cc2cccc(F)c2)c(N(C(C)=O)C(C)=O)c1S(=O)(=O)c1ccccc1,42.4%[activator],-4.3%
CCn1c(=O)n(CC)c2cc(Sc3ccccc3)c(NC(=O)c3ccccc3OC)cc21,9.5%,5.1%
CCN(Cc1ccccc1)C(=O)Cn1cc(S(=O)(=O)Cc2cccc(Cl)c2)c2ccccc21,128.4%[activator],14.4%
Cc1ccc(CC(=O)N(Cc2nc(-c3ccc(C)cc3)no2)C(C)C)cc1,17.1%,4.4%
Fc1ccc(CNc2ncnc3onc(-c4ccc(F)cc4)c23)cc1,-23.4%,?
CNC(=O)c1ccc(N(Cc2ccc(C)cc2)S(C)(=O)=O)cc1,-0.3%,-0.4%
CN1CCN(c2ccc(NC(=O)c3cccc(S(=O)(=O)NCc4cccs4)c3)cc2)CC1,57.6%[activator],9.7%
CC(N(C)CC(=O)NC(C)(C#N)C(C)C)C(C)(C)C (configuration not stated),14.8%,8.3%
N#CC1(NC(=O)Cc2c[nH]c3cc(F)ccc23)CCC1,14.0%,1.2%
COC(=O)c1ccc(NC(=O)CCc2c(C)nn(-c3ccc(N4CCCC4)nn3)c2C)cc1,-19.0%,-28.3%
CC(C)(C)NC(=O)/C(=C/c1ccc(-c2ccc(Cl)cc2)o1)NC(=O)c1ccc(Cl)cc1,15.4%,13.1%
COc1ccccc1/C=C/C=C(/C#N)c1nc2ccccc2[nH]1,97.4%[activator],8.4%
COc1cccc(OCc2nc3ccccc3n2Cc2ccccc2)c1,0.3%,49.3%[activator]

SMILES,StopGo RLuc,StopGo FLuc
CC1=Nc2c(cnn2-c2ccc(C)c(Cl)c2)C2=NCCCN12,-11.9%,0.1%
COc1ccc2c(CNCc3cccs3)c(C(=O)O)n(Cc3ccccc3C)c2c1,52.0%[activator],-12.6%
COc1ccc(CNC(=O)c2ccc3c(c2)CCN3S(=O)(=O)c2ccc(Cl)cc2)cc1,0.9%,-11.2%
CN1CCN(c2ccccc2NC(=O)c2cccs2)CC1,3.8%,-8.0%
Cc1ccc(C)c(N2CCN(C(=O)CN3C(=O)COc4ccc(S(=O)(=O)N5CCC(C)CC5)cc43)CC2)c1,0.5%,0.3%
COc1ccc(Cl)cc1NC(=O)Cn1c(C)cc(=O)n2nc(-c3cccs3)nc12,-6.5%,-6.3%
Cc1oc(-c2ccccc2)nc1CC(=O)NCC1(N2CCOCC2)CCCCC1,-15.9%,-18.2%
CC(C)n1ncc2cc(NC(=O)CCc3ncc(-c4ccccc4F)o3)cnc21,-11.4%,26.2%
Cc1cccc(NC(=S)NN)c1,17.4%,15.8%
CCC(=O)N1CCc2cc(S(=O)(=O)CCC(=O)N3CCN(c4cccc(C)c4)C(C)C3)ccc21 (configuration not stated),-17.1%,-25.3%
O=C1CN(C(=O)c2ccc(S(=O)(=O)N3CCCC3)cc2)C(c2ccccc2)c2cc(Br)ccc2N1 (configuration not stated),38.7%[activator],-10.8%
COc1cccc(C(=O)NN2CC(O)=C(c3nc(-c4ccc(Br)cc4)cs3)C2=N)c1,-6.2%,1.7%
CNc1nc(-c2ccc(NC(=O)C(C)C)cc2)cs1,88.4%[activator],416.3%[activator]
CCCNC(=O)C(C)NC(=O)c1ccc2ccccc2n1 (configuration not stated),-8.7%,4.9%
Cc1ccc(NC(=O)C2CCN(C(=O)C(C)(C)C)CC2)cc1S(=O)(=O)N1CCCCC1,-25.8%,-28.4%
COc1ccc2c(C)c(CCC(=O)NCCCN3CCOCC3)c(=O)oc2c1,-9.5%,-7.3%
O=C1CN(C(=O)c2cc(-c3ccccc3)nc3ccccc23)CCN1,-4.3%,0.4%
CC(C)c1ccc(/C=C(/C#N)C(=O)Nc2cccc3ncccc23)cc1,1.7%,-4.0%
Cc1ccc(C(=O)N2CCCc3cc(C(=O)NCCC(C)C)ccc32)cc1,12.2%,-1.3%
Cc1nc2sccn2c(=O)c1CCN1CCC(=C(c2ccc(F)cc2)c2ccc(F)cc2)CC1,-10.9%,-19.9%
CCn1cnnc1SCC(=O)c1[nH]c(C)c(C(=O)OC)c1C,-4.0%,6.6%
CN1CCN(C(=O)CN2CCN(C(C(=O)O)c3cn(CC(=O)O)c4cc(F)ccc34)CC2)CC1 (configuration not stated),-6.5%,-3.1%
CCCN1C(=O)c2[nH]nc(-c3ccc(F)cc3)c2C1c1ccc(O)c(OCC)c1 (configuration not stated),8.1%,-11.9%
COCCCNC(=O)c1[nH]c2cc(OC)ccc2c1Sc1ccc(C)cc1,163.9%[activator],16.6%
CCOC(=O)C(C#N)C(N)=O (configuration not stated),13.2%,0.0%
Cc1ccc(CCNC(=O)c2ccc(CSCc3ccccc3C)o2)cc1,13.0%,?
O=[N+]([O-])c1cc(S(=O)(=O)Nc2ccccc2)ccc1N/N=C/c1c(F)c(F)c(F)c(F)c1F,5.2%,0.0%
Cc1cc(Br)ccc1NC(=O)CNC(=O)c1cc(=O)c2ccccc2o1,-5.1%,-5.8%
COc1ccc(CNc2ncnc3onc(C)c23)cc1,-6.3%,-36.5%
Cc1ccc(OC(C)C(=O)NCCc2c[nH]c3ccccc23)cc1 (configuration not stated),-9.6%,12.7%

Gathered by group, the compounds so far with a nitro group on carbon
SMILES,StopGo RLuc,StopGo FLuc
Cn1c(=O)c2c(ncn2CC(=O)Nc2cccc([N+](=O)[O-])c2)n(C)c1=O,-1.7%,1.3%
O=[N+]([O-])c1cc(S(=O)(=O)Nc2ccccc2)ccc1N/N=C/c1c(F)c(F)c(F)c(F)c1F,5.2%,0.0%

(next part)
SMILES,StopGo RLuc,StopGo FLuc
CN(C)c1ccc(C(=O)/C=C/c2ccccn2)cc1,-23.5%,234.3%[activator]
O=C(O)c1cnc(/C=C/c2csc(-c3ccccn3)n2)s1,21.0%,54.7%[activator]
CCn1c(SCc2nc(-c3ccccc3C)oc2C)nc2c(=O)[nH]cnc21,-0.8%,18.0%
CC1CCc2c(sc(NC(=O)C(C)C)c2C#N)C1 (configuration not stated),18.3%,0.0%
CCn1c(=O)c(C(=O)Nc2cc(OC)c(OC)c(OC)c2)nc2ccccc21,4.2%,38.4%[activator]
CCOc1ccc(CN(CCc2ccc3c(c2)OCO3)Cc2cccc(OC)c2)cc1,17.3%,31.3%
CCc1ccc(CNc2ncnc3c2nc2n3CCCC2)cc1,12.5%,-9.7%
CCOC(=O)c1sc(NC(=O)c2nc3ncccn3n2)c(C(=O)OC(C)C)c1C,-4.4%,-12.6%
COc1cc(NC(=O)c2nn(-c3ccc(F)cc3)c(=O)n(C)c2=O)cc(OC)c1OC,10.2%,10.6%
COC(=O)c1cc2oc3ccccc3c2n1CC(=O)Nc1ccc(OC)c(OC)c1,-10.9%,7.5%
Cc1c(CC(=O)NCc2ccco2)c(=O)oc2cc(O)ccc12,11.3%,0.0%
O=C(CSc1nc2cc(Cl)ccc2s1)Nc1ccc(F)cc1,-1.6%,22.1%

From PubChem
